Screening results: PubChem BioAssay, National Center for Advancing Translational Sciences (NCATS)
FEN1 inh = human FEN1 inhibition. Recombinant FEN1 flap cleavage, fluorescence, 15 min. P39748. Potency, µM (top dose mostly 114 µM), inactives show at the top dose activity change, negative = inhibition, hits mostly inhibitors. 0.35% of 390,000 active. AID 588795; note: nearly all actives have a fitted effect of over 65% in size
Target sequence (P39748 whole entry, looked up): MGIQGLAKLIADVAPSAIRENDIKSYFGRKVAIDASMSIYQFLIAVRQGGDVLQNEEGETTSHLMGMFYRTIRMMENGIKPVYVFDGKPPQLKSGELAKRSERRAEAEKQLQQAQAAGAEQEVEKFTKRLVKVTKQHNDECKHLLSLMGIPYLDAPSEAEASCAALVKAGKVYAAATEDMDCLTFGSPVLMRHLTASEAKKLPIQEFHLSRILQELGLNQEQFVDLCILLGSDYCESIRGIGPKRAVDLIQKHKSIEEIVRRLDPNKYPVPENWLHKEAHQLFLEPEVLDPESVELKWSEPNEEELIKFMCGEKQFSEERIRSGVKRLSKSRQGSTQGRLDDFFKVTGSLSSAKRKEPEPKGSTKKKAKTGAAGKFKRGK
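Recombinant FEN1 (10 nM) was preincubated with pin-transferred compounds for 15 min at room temperature, then flap DNA substrate (50 nM final) was added. Plates were read at 0 and 15 min, and normalized concentration–response data were fitted to a four-parameter Hill equation.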
TDP1 inh = blocks human tyrosyl-DNA phosphodiesterase 1; Q9NUW8; recombinant TDP1, AlphaScreen DNA substrate cleavage; Potency, µM (doses to about 130 µM), without a hit: top-dose activity change, negative = inhibition, hits mostly inhibitors; 0.28% of 350,000 active; AID 485290; note: nearly all actives have a fitted effect of over 40% in size
Target sequence (Q9NUW8 whole entry, looked up): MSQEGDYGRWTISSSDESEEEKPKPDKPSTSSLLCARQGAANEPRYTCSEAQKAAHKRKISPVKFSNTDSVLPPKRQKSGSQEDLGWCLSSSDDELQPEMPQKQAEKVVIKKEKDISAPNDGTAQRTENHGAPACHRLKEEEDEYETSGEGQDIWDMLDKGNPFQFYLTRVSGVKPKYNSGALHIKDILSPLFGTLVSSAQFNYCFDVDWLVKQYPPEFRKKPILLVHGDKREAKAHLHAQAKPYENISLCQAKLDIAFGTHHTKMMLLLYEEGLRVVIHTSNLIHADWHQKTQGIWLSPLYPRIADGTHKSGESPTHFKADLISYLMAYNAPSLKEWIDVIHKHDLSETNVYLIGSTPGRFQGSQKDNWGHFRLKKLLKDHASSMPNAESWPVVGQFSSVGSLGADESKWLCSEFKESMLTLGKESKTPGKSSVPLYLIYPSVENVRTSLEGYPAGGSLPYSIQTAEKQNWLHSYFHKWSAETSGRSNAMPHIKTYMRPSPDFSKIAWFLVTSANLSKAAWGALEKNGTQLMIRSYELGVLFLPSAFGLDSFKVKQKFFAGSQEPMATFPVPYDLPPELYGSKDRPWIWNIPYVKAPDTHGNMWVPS
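E. coli-derived human Tdp1, 1 nM final. Cpd preinc 15 min RT; substrate 15 nM final, 5 min RT; AS bead mix 10 ug/ml final, 10 min RT. Signal loss = tyrosine-FITC cleavage. No-enzyme wells = max signal.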
Numbers without * were called inactive; ? = inconclusive; . = not tested or not shown; [ ] = remark or other dose. Calls come from the whole dose curve; as a rule, active = well fitted inhibition curve with a large enough effect; inconclusive = small, poorly fitted or top-dose-only effect; inactive = no such curve, though single readings can be large or run the other way. % is set by controls: 0 for no effect and ±100 for the full control effect; potency is the fitted concentration of half-maximal effect.

The opening 4 compounds (preview)
SMILES | FEN1 inh | TDP1 inh
CCCn1nnnc1NCc1ccccc1OCC | 13% | .
N/C(=N\OC(=O)CCC1CCCC1)c1ccc([N+](=O)[O-])cc1 | -11% | 11%
CCCOc1ccc(/C=N/NC(=O)CSc2ccccn2)cc1OC | -15% | 4%
CCOC(=O)C1=C(C)N(C)C(=S)NC1c1ccccc1 (centres undefined) | 8% | 1%

The listing, repeating the preview:
SMILES | FEN1 inh | TDP1 inh
CCCn1nnnc1NCc1ccccc1OCC | 13% | .
N/C(=N\OC(=O)CCC1CCCC1)c1ccc([N+](=O)[O-])cc1 | -11% | 11%
CCCOc1ccc(/C=N/NC(=O)CSc2ccccn2)cc1OC | -15% | 4%
CCOC(=O)C1=C(C)N(C)C(=S)NC1c1ccccc1 (centres undefined) | 8% | 1%
CC1=C(C(=O)OC2CCCCC2)C(c2cccc([N+](=O)[O-])c2)NC(=O)N1 (centres undefined) | -10% | .
CN(C)C(=O)[C@H]1C[C@H]1[C@@H](O)[C@H](CO)NC(=O)[C@H](COCc1ccccc1)NC(=O)OC(C)(C)C | 2% | .
CCC(C)C(Nc1ncnc2scc(-c3ccccc3)c12)C(=O)O (centres undefined) | 7% | .
CSCC(=O)N1CCC(CCC(=O)NC2CC2)CC1 | 1% | 3%
CC(=O)Nc1ccc(S(=O)(=O)NC(CC(=O)O)c2ccc(OC(C)C)cc2)cc1 (centres undefined) | -2% | 0%
COc1cc(OC)cc(C(=O)N[C@H](C(=O)OCC(=O)NC(=O)c2cccn2C)C(C)C)c1 | -9% | 4%
COc1ccc2c(c1)CCc1c(C(=O)NC3CCCCC3)noc1-2 | -16% | 2%
Cn1c(SCc2nnc3n2CCCCC3)nc2ccccc21 | 16% | 2%
CC(CCc1ccccc1)NC(=O)COC(=O)c1ccc(S(C)(=O)=O)c([N+](=O)[O-])c1 (centres undefined) | -6% | 4%
C/C(=N\NC(=O)Cc1ccc(Cl)cc1)c1ccc(F)cc1 | -1% | 3%
CCOc1ccc(-c2cc(C(=O)OC)[nH]n2)cc1 | 51%[activator] | 3%
CC(/C=C/c1ccccc1)=N\NC(=O)Cn1cncn1 | -6% | .
O=C(/C=C/c1ccco1)NCc1ccccn1 | -3% | 4%
O=C(CSc1ncc(-c2ccc(F)cc2)n1Cc1ccco1)Nc1ccc2c(c1)OCO2 | 4% | 9%
O=C(Cc1ccc(Cl)cc1)NCc1ccccc1Cl | 1% | 5%
Cc1cc(NC(=O)CSc2nc3ccccc3s2)no1 | 8% | 3%
COc1cccc(/C=C2\SC(=O)N(CCC(=O)N3CCC(C(=O)O)CC3)C2=O)c1 | -8% | 6%
CCOC(=O)C1=C(C)NC(=S)NC1c1ccc(OCC(=O)N2CCCCCC2)cc1 (centres undefined) | 5% | 2%
C=CCc1cc(Cl)ccc1OCCN1CC(C)OC(C)C1 (centres undefined) | -3% | ?
Cc1nc2c(Cl)cccc2[nH]1 | 1% | -2%
O=C(NCc1cccnc1)c1cnc2ccccc2n1 | -14% | 3%
SMILES | FEN1 inh | TDP1 inh
COc1cccc(C(C(=O)NCc2ccco2)N(Cc2ccco2)C(=O)Cn2nnc3ccccc32)c1 (centres undefined) | -1% | 8%
O=C(/C=C/c1cccc(F)c1)Nc1ccc(S(=O)(=O)Nc2ncccn2)cc1 | -6% | 7%
Cc1cc(S(=O)(=O)NCC(c2ccc(F)cc2)N2CCN(C)CC2)ccc1F (centres undefined) | -6% | .
Cn1nc(C(=O)N2CCc3ccccc3C2)c2ccccc2c1=O | 2% | -9%
CN(Cc1ccc(Br)cc1)CC(O)COc1cccc(Br)c1 (centres undefined) | -28% | 6%
Cc1cc(NC(=O)c2cc(-c3ccc4c(c3)OCO4)on2)n(-c2ccccc2)n1 | 1% | 0%
COc1ccc(/C=N/OC/C(O)=C(\C#N)c2nc3ccccc3[nH]2)cc1 | -16% | 5%
O=C(C1CCN(S(=O)(=O)c2ccc(Br)s2)CC1)N1CCCCC1 | -3% | 8%
CC(Sc1nc2ccccc2s1)C(=O)N1CCOCC1 (centres undefined) | -8% | -2%
Nc1c(C(=O)c2ccc(F)cc2)oc2ccccc12 | -10% | -5%
Cc1ccc(S(=O)(=O)N/N=C/c2cccs2)cc1 | -3% | 1%
CCOc1ccc(NC(=O)CN(C)C(=O)c2cccc(S(=O)(=O)N3CCCC3)c2)cc1OCC | -7% | -8%
COc1cc(NC(=O)COc2ccc(-n3cnnn3)cc2)c(OC)cc1Cl | -9% | -7%
CCOC(=O)C1(Cc2ccccc2C)CCCN(S(=O)(=O)c2cccnc2)C1 (centres undefined) | 1% | -5%
Cc1cccc2[nH]c(SCC(=O)O)nc12 | 1% | ?
O=C(CCS(=O)(=O)c1ccccc1)Nc1ccccc1N1CCOCC1 | 0% | 0%
O=C(COc1ccccc1)OCc1cc2ccccc2[nH]c1=O | -6% | 4%
O=C(O)c1ccccc1C(=O)N1CCN(Cc2ccc3c(c2)OCO3)CC1 | -8% | .
COc1cccc(-n2ccnc2SCC(=O)Nc2ccccc2F)c1 | -7% | 9%
O=C(NCc1nc2ccccc2[nH]1)C1=C[C@H](C2CC2)C[C@H](OCCCCO)O1 | -10% | 5%
O=C(COc1ccc(Cl)cc1)NCc1nnc2c3ccccc3c(-c3ccccc3)nn12 | -29% | 2%
CC/C(O)=C(\C#N)c1nnc2n1CCCCC2 | -7% | 4%
NNC(=O)c1ccc(N2CCc3ccccc32)c([N+](=O)[O-])c1 | -7% | 8%
COc1ccc(C(=O)NC(C)CCc2ccccc2)cc1 (centres undefined) | -3% | .
CC(OC(=O)CN1C(=O)C2CC=CCC2C1=O)C(=O)Nc1ccc(F)cc1Cl (centres undefined) | 2% | 1%

An excerpt of these results, as a markdown table.
| compound | FEN1 inh | TDP1 inh |
| --- | --- | --- |
| O=C(O)c1ccccc1C(=O)N1CCN(Cc2ccc3c(c2)OCO3)CC1 | -8% | . |
| COc1cccc(-n2ccnc2SCC(=O)Nc2ccccc2F)c1 | -7% | 9% |
| O=C(NCc1nc2ccccc2[nH]1)C1=C[C@H](C2CC2)C[C@H](OCCCCO)O1 | -10% | 5% |
| O=C(COc1ccc(Cl)cc1)NCc1nnc2c3ccccc3c(-c3ccccc3)nn12 | -29% | 2% |
| CC/C(O)=C(\C#N)c1nnc2n1CCCCC2 | -7% | 4% |
| NNC(=O)c1ccc(N2CCc3ccccc32)c([N+](=O)[O-])c1 | -7% | 8% |

(listing goes on)
SMILES | FEN1 inh | TDP1 inh
FC(F)(F)c1nnc2sc(-c3ccncc3)nn12 | 3% | -6%
O=C(Cn1nnc2ccccc21)N/N=C/c1ccco1 | 3% | 1%
CC(C)N1CCN(Cc2ccc(-c3ccccc3)cc2)CC1CCO (centres undefined) | -4% | 4%
CC(C)COC(=O)C1C(=O)CC(C)(O)C(C(=O)OCC(C)C)C1c1cccnc1 (centres undefined) | 4% | 8%
O=C(c1ccc2nc3ccccc3c(=O)n2c1)N1CCN(Cc2ccc3c(c2)OCO3)CC1 | 0% | 6%
COc1cccc(-c2nnn(CC(C)=O)n2)c1 | 3% | -3%
N#CCOc1ccc(C2=NO[C@@H]3[C@@H]4C[C@@H]([C@H]5C(=O)N(c6ccc7c(c6)OCO7)C(=O)[C@@H]45)[C@H]23)cc1 | -6% | 1%
COc1ccc(NS(=O)(=O)c2cc(NC(=O)CCNC(=O)c3ccco3)ccc2OC)cc1 | 0% | 3%
COc1ccc(C2=NOC(C)(c3nnc(-c4ccc(F)cc4)o3)C2)cc1 (centres undefined) | 3% | 1%
COc1ccc(N2CCN(C(=O)c3ccc4c(=O)n(CC5CCCO5)c(=O)[nH]c4c3)CC2)cc1 (centres undefined) | 0% | 5%
Cc1cccc(C)c1NC(=O)C1(N2C(=O)CC2c2ccccc2)CCCCC1 (centres undefined) | -5% | -5%
O=C(N/N=C/c1ccc(Br)cc1)c1ccc(Br)o1 | ? | 0%
N=c1oc2ccc(Br)cc2cc1C(=O)NCc1ccc(F)cc1 | -2% | 3%
O=C(CNC(=O)c1ccc(F)cc1)N/N=C/c1cccnc1 | -2% | -10%
COc1ccc2c(c1)C(c1ccc(Cl)cc1)NC(=O)C2 (centres undefined) | -3% | 0%
CCOC(=O)c1[nH]c2cc3c(cc2c1NC(=O)CN1CCCC1)OCO3 | -3% | 3%
C=CCn1c(CCNC(=O)c2cccs2)nnc1SCC(=O)c1ccc(Cl)cc1 | -11% | 5%
Nc1ccn([C@H]2CC[C@@H](CO)O2)c(=O)n1 | 7% | 11%
COc1ccc(/C(N)=N/OC(=O)CN(C)S(=O)(=O)c2ccc(C)cc2)cc1 | -4% | 0%
Cc1nc(-c2ccncc2)nc(NCCNc2ccc(C(F)(F)F)cn2)c1Cl | 4% | .
CC(=O)N=c1n(C)c2ccccc2n1CCOc1ccccc1 | -1% | 3%
CC(=O)c1cccc(NC(=O)COC(=O)c2n[nH]c3ccccc23)c1 | 2% | -3%
NC(=O)C1CCN(C(=O)NC(=O)c2ccccc2)CC1 | -4% | 2%
CCOC(=O)N1CCN(c2c(N3CCC(N4CCCCC4)CC3)c(=O)c2=O)CC1 | -1% | 4%
CCc1nc(SCc2ccc(Cl)cc2)n[nH]1 | 18% | 3%
SMILES | FEN1 inh | TDP1 inh
O=C(NCCCN1CCCCC1)c1ccc2c(c1)NC(=O)C(N1CCOCC1)S2 (centres undefined) | 9% | 3%
CN(C)C(CNC(=O)CCCOc1ccccc1)c1ccco1 (centres undefined) | 6% | 3%
Cn1c(/C=N/c2nc3ccccc3[nH]2)nc2ccccc21 | -5% | 9%
COc1cc(CC(=O)Nc2nc(-c3ccc(F)c(F)c3)cs2)cc(OC)c1OC | -5% | 7%
CCc1nn(C)c2c(=O)c(=O)c2n(C)[nH]1 | 4% | 1%
Cc1ccccc1N/C(=N/S(=O)(=O)c1cc(F)ccc1F)c1ccccc1 | -14% | 3%
Cc1ccccc1-c1ccc(Nc2ccc(N3CCOCC3)cc2)nn1 | -9% | 8%
O=[N+]([O-])c1ccc2c(c1)[nH]c(=S)n2-c1ccccc1 | -1% | 5%
COC(=O)[C@H](CC(C)C)NS(=O)(=O)c1ccccc1 | 0% | .
C/C(=N\NC(=O)CC1(C)OCCO1)c1cccs1 | -6% | 0%
CCC(CC)C(=O)N1CC(=O)Nc2ccc(F)cc2C1c1ccccc1 (centres undefined) | -13% | .
O=C(NNC(=O)c1cccc(S(=O)(=O)N2CCc3ccccc32)c1)c1ccccc1 | -3% | -1%
COCCC(=O)N1CCC(Oc2ccc(C(=O)N3C[C@@H](C)O[C@@H](C)C3)cc2)CC1 | -3% | 3%
COc1ccccc1C/C(N)=N/OC(=O)c1ccc2c(c1)OCO2 | -16% | 5%
COC(=O)c1sccc1NC(=O)CC1C(=O)NCCN1C(=O)c1ccccc1 (centres undefined) | -1% | .
CCC(=O)c1ccc(OCCn2cncn2)cc1 | -12% | 5%

Quoted at random: 3 compounds from above.
SMILES | FEN1 inh | TDP1 inh
CCc1nn(C)c2c(=O)c(=O)c2n(C)[nH]1 | 4% | 1%
Cn1c(/C=N/c2nc3ccccc3[nH]2)nc2ccccc21 | -5% | 9%
O=C(NCCCN1CCCCC1)c1ccc2c(c1)NC(=O)C(N1CCOCC1)S2 (centres undefined) | 9% | 3%

Complete entries from above:
`COc1cc(CC(=O)Nc2nc(-c3ccc(F)c(F)c3)cs2)cc(OC)c1OC` in the list: FEN1 inh: -5%; TDP1 inh: 7%
`Cc1ccccc1-c1ccc(Nc2ccc(N3CCOCC3)cc2)nn1` in the list: FEN1 inh: -9%; TDP1 inh: 8%
`COC(=O)c1sccc1NC(=O)CC1C(=O)NCCN1C(=O)c1ccccc1` (centres undefined) in the list: FEN1 inh: -1%; TDP1 inh: .

The list is partial, and most or all hits are left out here.
